# TRPML1 agonist: agonists of human TRPML1 channel; Q9GZU1; activation, % (no concentration beside the values); 410,000 tested, 0.12% active; AID 624414; TRPML1-expressing cells, Ca2+ dye fluorescence, FDSS; host cell line not named in the record; reference of the full effect not given here; in the data active = activation above about 50%; inconclusive = about 30% to 50%; inactive = below about 30%; also: 0% is about no effect; the text of the record puts the active cut at 80%
# Target sequence (Q9GZU1 whole entry, looked up): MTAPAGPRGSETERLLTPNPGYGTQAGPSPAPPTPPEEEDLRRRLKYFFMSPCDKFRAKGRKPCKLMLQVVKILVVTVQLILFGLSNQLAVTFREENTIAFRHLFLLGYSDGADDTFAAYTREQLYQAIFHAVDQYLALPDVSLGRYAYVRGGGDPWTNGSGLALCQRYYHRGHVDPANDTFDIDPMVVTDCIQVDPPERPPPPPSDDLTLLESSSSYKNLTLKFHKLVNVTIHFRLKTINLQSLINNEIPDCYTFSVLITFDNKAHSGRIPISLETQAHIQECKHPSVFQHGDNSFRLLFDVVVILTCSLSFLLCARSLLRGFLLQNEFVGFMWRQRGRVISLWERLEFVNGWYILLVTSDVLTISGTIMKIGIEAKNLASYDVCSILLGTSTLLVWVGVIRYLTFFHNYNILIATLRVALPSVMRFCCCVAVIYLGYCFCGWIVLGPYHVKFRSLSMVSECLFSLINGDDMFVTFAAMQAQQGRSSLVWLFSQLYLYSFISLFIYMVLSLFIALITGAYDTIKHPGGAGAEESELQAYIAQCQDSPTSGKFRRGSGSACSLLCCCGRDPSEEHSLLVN
#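 Calcium fluorescence on an FDSS kinetic reader gave the read-out. Tet-induced TRPML1-DL cells were plated overnight, dye-loaded (Ca8 with quencher, 45-90 min, room temperature, dark), then read 110 s after compound addition, and again 110 s after 4uM final 54-4 (EC80).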
# TRPML1 blocker: human mucolipin-1 channel inhibition | Q9GZU1 | TRPML1-inducible cells, Ca2+ dye fluorescence, FDSS; stronger effect = lower value; inhibition of EC80 agonist-evoked calcium signal | activity change, negative = inhibition, % (test concentration not listed) | 390,000 tested, 0.02% active | AID 624415; in the data active means activity change below about -50%; inconclusive means about -30% to -50%; inactive means above about -30%;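 also: stimulus is agonist 54-4 at its EC80 concentration; % is scaled to controls: 0 for no effect and ±100 for the full control effect; compound concentration not given in the record; the text of the record puts the active cut at -80%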
#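 Tet-induced TRPML1-DL cells loaded with Ca8 no-wash calcium dye were read kinetically on FDSS. Compound addition was followed by EC80 agonist 54-4 (4 uM final); inhibition was read over 110 s.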
# Menin MLL FP FL: inhibitors of human menin-MLL interaction, wild-type MLL peptide; Fluorescence polarization, fluorescein-MLL peptide displacement from menin; FP activity change, % at 61.4 µM; 290,000 tested, under 10 active; inconclusive = falling polarisation curve, or a change in total fluorescence; inactive = total fluorescence flat and polarisation flat or rising; no compound was filed as active; the % refers to the polarisation; negative = inhibition;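 also: % of control where 0% means no effect; inhibitors lower the polarisation; unlabelled MLL peptide was the positive control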
# ClpP mod: qHTS Assay for Activators of ClpP; purified B. subtilis ClpP, FRET peptide cleavage, 20 min; Potency, µM (top dose mostly 57.5 µM), for the others: at the top dose activity change, negative = active; AID 651965, 2013; 340,000 tested, 1.9% active; active = well fitted falling curve with a large enough effect; inconclusive = small, poorly fitted or top-dose-only effect; inactive = no such curve, though single readings can be large or run the other way; also: potency is read from the fitted curve at half-maximal effect; the source files actives as falling curves though it sought activators and does not explain the sign; nearly all actives have a fitted effect of over 65% in size; many hits overshoot -100%
# Target sequence (P80244 whole entry, looked up): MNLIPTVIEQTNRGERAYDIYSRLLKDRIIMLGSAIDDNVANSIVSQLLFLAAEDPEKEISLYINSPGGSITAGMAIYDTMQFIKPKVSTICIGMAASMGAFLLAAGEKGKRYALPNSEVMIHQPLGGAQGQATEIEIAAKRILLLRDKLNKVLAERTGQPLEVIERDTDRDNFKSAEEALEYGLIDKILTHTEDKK
#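 Purified B. subtilis ClpP, 10 microg/mL final in Tris/HCl pH8 with KCl, BSA, glycerol and Tween-20, cleaved an Abz/nitrotyrosine-quenched decapeptide. Fluorescence (ex 320, em 430) was read at 0 and 20 min at room temperature. Delta was normalized to 5.8 microM ADEP and DMSO/no-enzyme controls.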
# gsp antagonist: gsp mutant antagonism | Potency, µM (highest dose often 76.9 µM), for inactives: at the highest dose activity change, negative = inhibition, hits mostly inhibitors | gsp-mutant cells, cAMP HTRF, 30 min; control for the full effect not named in the record | 340,000 tested, 0.4% active; active = falling curve of any shape with a large fitted effect; inconclusive = falling curve, mostly with a smaller effect; inactive = flat or rising curve; cell line not stated here;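 also: intracellular cAMP measured with PDE inhibitor Ro 20-1724 present during compound exposure; potency is read from the fitted curve at half-maximal effect; % is scaled to controls: 0 for no effect and ±100 for the full control effect; nearly all actives have a fitted effect of over 65% in size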
#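 Cells in G418 medium, seeded 16-24 h, 37C; buffer exchange to DPBS + 1 mM CaCl2, 0.5 mM MgCl2, 0.05% BSA; cpds in DMSO + […] (300 uM stock), 30 min 37C; HTRF cAMP detection.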
# gsp ag: agonists of gsp mutant (McCune-Albright syndrome); gsp mutant cells, cAMP HTRF, 30 min; control for the full effect not named in the record; Potency, µM (highest dose often 76.9 µM), without a hit: top-dose activation (cAMP increase), usual class: activators; 340,000 tested, 0.13% active; active = well fitted activation curve with a large enough effect; inconclusive = small, poorly fitted or top-dose-only effect, or another doubt; inactive = no such curve, though single readings can be large or run the other way; cell line not stated here;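 also: phosphodiesterase inhibitor Ro 20-1724 added with compounds to block cAMP breakdown; potency is read from the fitted curve at half-maximal effect; nearly all actives have a fitted effect of over 60% in size; about a fifth of the inactives were tested at one dose only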
#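 Cells stably selected in G418 were plated at 2000/well, grown 16-24 hr, then given compounds in DMSO with the PDE inhibitor […] (300 uM solution added) for 30 min at 37C; cAMP was read by HTRF.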
# An asterisk follows results filed as active; ? = inconclusive; nt = not tested or not shown; & = joins results of further samples; [ ] = remark or other dose. Compounds were not picked by outcome, and some 2.1% of all compounds hit somewhere here.
# Start of the data: the first 2 compounds (preview)
mol,TRPML1 agonist,TRPML1 blocker,Menin MLL FP FL,ClpP mod,gsp antagonist,gsp ag
O=S(=O)([N-]c1nc2ccccc2nc1-n1cc[n+](Cc2ccccc2)c1)c1ccc(Cl)cc1,0.0,-29,4.3,nt,7%,-12%[15.4 µM]
COC(=O)C(=O)C/C(=N/Nc1ncnc2ccccc12)c1ccc(Cl)cc1,3.9,7,?,-1.9%,-15%,13%[15.4 µM]

# The list itself, previewed entries included:
mol,TRPML1 agonist,TRPML1 blocker,Menin MLL FP FL,ClpP mod,gsp antagonist,gsp ag
O=S(=O)([N-]c1nc2ccccc2nc1-n1cc[n+](Cc2ccccc2)c1)c1ccc(Cl)cc1,0.0,-29,4.3,nt,7%,-12%[15.4 µM]
COC(=O)C(=O)C/C(=N/Nc1ncnc2ccccc12)c1ccc(Cl)cc1,3.9,7,?,-1.9%,-15%,13%[15.4 µM]
O=c1[nH]nc(-c2ccc(NCCO)c([N+](=O)[O-])c2)c2ccccc12,0.5,-17,-3.3,nt,12%,6%
CN1CCN(C(c2cccc(Cl)c2)c2ccccc2Cl)CC1 (stereo not drawn),-0.1,0,0.4,-3.1%,-7%,9%
Cc1ccc(NC(=S)N(CCCN2CCOCC2)Cc2ccco2)cc1C,-0.4,-5,2.7,0.3%,1%,7%[15.4 µM]
Cc1cc(C)cc(C(=O)NC2C(=O)N3C(C(=O)O)=C(CSc4nnc(C)s4)CSC23)c1 (stereo not drawn),-0.4,14,3.1,-0.1%,5%,6%
O=P(O)(CCc1ccccc1)CN1CCCCC1,0.3,-4,4.4,0.1%,3%,17%
Cc1ccccc1NC(=O)c1ccccc1-c1ccccc1,-0.7,6,-1.0,nt,-2%,-34%
COc1ccc(-c2nn3c(-c4ccccc4)nnc3s2)cc1OC,2.7,-11,8.0,?,20%,37%
O=C(O)Cc1ccc(C(=O)c2cccs2)s1,3.5,-2,-0.4,-4.6%,-7%,-19%
COc1cc(/C=C/C(=O)OCC(=O)Nc2ccc(C)c(S(=O)(=O)N3CCCCC3)c2)ccc1O,3.1,17,6.5,-1.3%,-6%,-4%[15.4 µM]
CN(CC(=O)Nc1ccccc1Br)C(=O)CNC(=O)c1ccc2c(c1)OCO2,-0.3,-7,nt,-10%,2%,-25%
CN1C(=O)/C(=C/c2cccc(Cl)c2)Sc2ccc(C(=O)N3CCCC3)cc21,0.4,34,nt,-0.2%,8.9µM*,0%
Cc1cnnc2ccc3c(no[n+]3[O-])c12,-0.9,6,?,-2.9%,2%,18%
C=CCC(CC=C)(NC(=O)c1ccccc1C)c1ccccc1,1.3,43,?,1.8%,14%,13%
CC1C(=O)Nc2ccccc2N1C(=O)c1ccccc1 (stereo not drawn),-0.3,-19,-0.6,nt,17%,9%[15.4 µM]
O=S(=O)(c1ccc(Cl)cc1Br)N1CCCCC1,3.0,56,2.0,-0.7%,0%,5%
Cc1ccc(C(c2c(C)[nH][nH]c2=O)c2c(C)[nH][nH]c2=O)cc1,0.9,-1,?,1.8%,0%,7%[15.4 µM]
O=C1CCC/C1=c1\s/c(=C\c2cccnc2)c(=O)n1-c1ccccc1,-1.1,6,8.0,-0.1%,-5%,-3%
COc1ccccc1CNC(=O)C(CC(C)C)NC(=O)C1CCC(C)CC1 (stereo not drawn),0.8,3,2.4,2.1%,-4%,-7%
CC[C@]12c3[nH]c4cc(CCC(=O)N(C)C)ccc4c3CCN1C(=O)[C@@H](CC(=O)NCCCn1ccnc1)C[C@@H]2C(=O)N1CCN(C(=O)C2CC2)CC1,0.8,23,nt,-5.9%,8%,nt
COc1cc(OC)c(NC(=O)CCNS(=O)(=O)c2cc(Br)cnc2N)cc1Cl,-0.9,-14,5.1,-12%,-2%,-3%
COc1cccc(-c2nc(N3CC(C)CC(C)C3)c3ccccc3n2)c1O (stereo not drawn),0.8,43,-0.6,-0.5%,-5%,-1%[15.4 µM]
CNC(=O)c1cc(OCC(F)(F)F)ccc1OCC(F)(F)F,-0.9,4,0.4,-7.9%,-3%,19%
COCC(=O)Nc1cc(C(=O)NCC(C)C)ccc1Cl,-0.3,-13,-0.4,-0.2%,18%,-45%[inhibitor]
O=C(NC1CCCCC1)N(Cc1cc2cc3c(cc2[nH]c1=O)OCCO3)CC1CCCO1 (stereo not drawn),-0.5,-1,-1.2,10µM*,1%,25%
COC(=O)c1ccsc1NC(=O)CSc1nnnn1Cc1ccccc1,3.1,-5,0.5,-3.0%,-4%[15.4 µM],-76%[inhibitor]
CCn1c(=N)c(C(=O)NCc2ccccc2)cc2c(=O)n3cc(C)ccc3nc21,-0.3,13,nt,-1.9%,nt,nt
C/C(O)=C(\C#N)c1nnc2n1CCCCC2,-0.1,29,-0.2,-0.2%,3%,9%
COc1ccc(CNC(=O)CSc2nnnn2-c2ccccc2)cc1,0.4,-5,0.1,1.3%,-2%,-17%
COc1ccc2oc(C(=O)OCC(=O)Nc3ccc(N4CCOCC4)cc3)c(C)c2c1,-0.8,12,nt,32µM*,0%,-18%
CCOc1ccc(NC(=O)c2cccnc2C(=O)O)cc1,-0.2,2,1.2,-1.5%,11%,-36%[inhibitor]
C=CCC1NS(=O)(=O)OC(CCc2ccccc2)C1O (stereo not drawn),-0.6,-3,-0.6,0.0%,4%,-32%[inhibitor]
CC(=O)Nc1cccc([N+](=O)[O-])c1,-0.3,-4,-0.4,-0.6%,4%,-8%
CCOCCCn1c(SCC(=O)Nc2ccccc2Cl)nc2c(oc3ccccc32)c1=O,-0.9,2,nt,-3.1%,nt,nt
O=C(COc1ccccc1Cl)Nc1ccc(C(=O)N2CCCCC2)cc1,1.5,-4,3.0,-2.2%,-10%,2%
CCN1C(=O)c2cccc3c(Cl)ccc(c23)C1=O,-1.3,-7,9.4,-2.4%,-14%,-2%[15.4 µM]
CCn1nnc(-c2ccccc2NS(=O)(=O)c2ccc(S(=O)(=O)N(C)C3CCCCC3)cc2)n1,4.0,-14,-7.3,-3.1%,-6%,-25%
CSc1ccc(CCNC(=O)C(C)n2nc(C)c3c(C)n(-c4ccccc4)nc3c2=O)cc1 (stereo not drawn),-0.4,13,nt,-3.9%,nt,nt
CCc1cc2c(SCC(=O)NC3CCCC3)ncnc2s1,-1.2,13,nt,-2.1%,nt,-38%[inhibitor]
COC(=O)C1NN=C(C(=O)c2ccccc2)C1c1ccccc1 (stereo not drawn),1.4,7,5.7,-2.4%,9%,23%
Cc1ccc2c(=O)oc(N(C)C)nc2c1,1.2,-2,-2.3,nt,-2%,-16%[15.4 µM]
CCCN(CC(=O)Nc1ccc(Cl)cc1Cl)C(=O)CC(NC(C)=O)c1ccccc1 (stereo not drawn),0.4,-9,nt,-7.8%,-3%,-4%
Cc1cccc(-n2c(-c3ccco3)nc3c(cnn3-c3ccccc3C)c2=O)c1,-0.6,29,nt,?,nt,nt
C=CCNC(=O)CSc1ncc2c(n1)-c1c(csc1SC)CC2,-0.3,-2,0.0,32µM*,-3%,-10%[15.4 µM]
CCCNC(=O)C1CCN(c2nc3ccc(C)cc3[nH]2)CC1,0.0,11,nt,-3.1%,nt,nt
O=C(CSc1nnc(-c2ccncc2)s1)Nc1ccccc1,0.1,-17,1.7,nt,-4%,14%[15.4 µM]
CCCCc1cc(=O)oc2cc(C)cc(OCC(=O)Nc3cccnc3)c12,1.6,17,nt,3.3%,-7%,8%
C=CCn1c(SCC(=O)/C(C#N)=C(\C)N)nc2sc(CC)cc2c1=O,0.6&-1.0,14&13,2.3,1.5%&0.3%,?,-50%&7%[inhibitor]
CC(C)(C)c1ccc(-c2noc(CCC(=O)Nc3cccc(Cl)c3)n2)cc1,2.3,12,nt,0.8%,nt,nt

# More entries follow:
mol,TRPML1 agonist,TRPML1 blocker,Menin MLL FP FL,ClpP mod,gsp antagonist,gsp ag
CCC1CCCCN1S(=O)(=O)c1ccc(NC(=O)c2cc(=O)c3ccccc3o2)cc1 (stereo not drawn),-1.1,-13,nt,-3.2%,nt,nt
O=C(c1ccc2c(c1)CCN2S(=O)(=O)c1ccccc1)N1CCN(c2ccccc2F)CC1,0.5&-0.1,2&-10,nt,-0.8%&1.4%,-7%,14%
COc1ccc(NC(=O)C2CCN(S(=O)(=O)c3cccnc3)CC2)cc1Cl,-0.6,2,-0.5,0.0%,-1%,-18%
COc1ccc(-c2cc3ncc(C(C)=O)c(C)n3n2)cc1,0.5,17,1.2,-5.1%,6%,-86%[inhibitor]
N#CC(c1ccc(O)cc1)c1ncc(C(F)(F)F)cc1Cl (stereo not drawn),-0.5,-3,-2.4,nt,3%,13%
O=C(NC(=S)Nc1ccc(N2CCCCC2)cc1)c1ccco1,-0.5,-10,0.2,1.0%,-16%,0%
COc1ccc(-c2nc(CSCC(=O)N3CCN(c4cccc(C)c4C)CC3)c(C)o2)cc1OC,0.5,-15,nt,-23%,nt,nt
CCCNC(=O)CCNC(=O)c1ccc(C(C)(C)C)cc1,-0.5,4,0.3,-1.8%,5%,0%
Cc1ccc2c(c1)N(C(=O)N1CCC(C(=O)NC3CCCCCC3)CC1)CC(C)O2 (stereo not drawn),-0.8,-3,nt,0.8%,nt,nt
CC(C(=O)Nc1ccc2c(c1)OCO2)N1CCN(C)CC1 (stereo not drawn),0.8,23,-0.9,nt,5%,-3%[15.4 µM]
COc1ccc(NC(=O)Nc2cc(C)ccc2F)cc1OC,0.7,-9,-4.2,nt,7%,10%
Cc1nc2c(c(=O)n1CCC(C)C)c1nc3ccccc3nc1n2Cc1ccc2c(c1)OCO2,-0.2,2,-1.7,-21%,-2%,16%
COc1ccc2nc(NC(=O)CS(=O)(=O)Cc3ccccc3)sc2c1,-0.1,0,3.2,-10%,2%,-33%[inhibitor]
Cc1cccc(NC(=O)COC(=O)c2n[nH]c3ccccc23)c1C,0.3,10,nt,-28%,-11%,-29%
COCCn1c(C)cc(C(=O)CN2C(=O)C(=O)N(CCC3=CCCCC3)C2=O)c1C,-1.1,24,nt,0.6%,nt,-42%[inhibitor]
O=C(Cc1cccs1)N/N=C/C=C/c1ccccc1[N+](=O)[O-],-0.1,4,0.4,nt,0%,-1%[15.4 µM]
CN(C)c1ccc(-c2nnc(-c3ccc(S(=O)(=O)C(F)F)cc3)o2)cc1,0.1,49,4.7,0.8%,5%,?
CCOc1ccccc1N1CCN(C(=O)Cc2ccc(S(=O)(=O)N3CCOCC3)s2)CC1,0.8,-16,nt,-2.1%,-5%,13%[15.4 µM]
CNC(=O)COc1ccc(-c2nn(C)c(=O)c3ccccc23)cc1,-0.5,-4,-1.1,-13%,2%,0%

# Screening results from PubChem BioAssay.
